Source: PubChem BioAssay (Fisher Drug Discovery Resource Center)
NPYLR7 agonist: activates Aedes aegypti NPYLR7 receptor | HEK293T NPYLR7/Galpha15, GCaMP6s calcium fluorescence | activation, % at 10 µM | hit rate 0.15% among 270,000; in the data active = activation above about 40%;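 also: 0% = vehicle and 100% = reference agonist at the receptor; some compounds past the cut are filed as inactive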
NPYLR7 agonist max-min: also measured in NPYLR7 agonist; calls as there; activation, %; measured here: Max-Min RFU normalised activation; some inactives read as strong as hits;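 span of the calcium signal over five minutes; 0% = vehicle and 100% = native peptide agonist; compound fluorescence can raise it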
* marks the source's active call; other numbers are inactive results; & = joins results of further samples.

SMILES	NPYLR7 agonist	NPYLR7 agonist max-min
CCOC(=O)c1c(NC(=O)C(F)(F)C(F)F)c(-c2ccc(OC)cc2)cn1Cc1ccccc1	21	32
Cc1ccc(CNC(=O)Cn2c(CO)cnc2SCCc2ccccc2)cc1	6	4
NC(=O)C1(NCc2nnc(-c3ccc(F)cc3)o2)CCCCC1	-1	-4
COCC1C(=O)OC2/C=C(\C=O)CCC3OC3(C)CC(O)C21 (stereo unspecified)	-10	-15
CCOCCn1nc(C)cc1C(=O)N1C[C@@H]2[C@@H]3CC[C@@H](C3)[C@@H]2C1	1	0
O=C(CC1CSc2nccc(=O)n21)Nc1ccccc1F (stereo unspecified)	-2	-4
CCc1nn(C)c(Cl)c1CN1CCCC1c1ccc(F)cc1 (stereo unspecified)	-3	-5
COCCN(CC(=O)N1CCc2sccc2C1c1ccccc1C)C(=O)COc1ccccc1 (stereo unspecified)	-6	-3
O=C(Nc1ccc(F)cc1)c1ccc(CSc2nc(N3CCN(Cc4ccccc4)CC3)cc(C(F)(F)F)n2)o1	4	7
CCOC(=O)C1(CCCc2ccccc2)CCN(C(=O)c2cncs2)CC1	1&16	-2&14

The closing two records of the part before lead into the next:
SMILES	NPYLR7 agonist	NPYLR7 agonist max-min
O=C(Nc1ccc(F)cc1)c1ccc(CSc2nc(N3CCN(Cc4ccccc4)CC3)cc(C(F)(F)F)n2)o1	4	7
CCOC(=O)C1(CCCc2ccccc2)CCN(C(=O)c2cncs2)CC1	1&16	-2&14
OC(Cn1ccc2ccccc21)Cn1cnc2ccccc21 (stereo unspecified)	-10	-16
COc1ccc(-c2c3c(=O)n(-c4ccccn4)ccc3nc3ncnn23)cc1	-11	-18
Brc1ccc(C=NN2CCN(Cc3cccc4ccccc34)CC2)cc1	-5	-6
CCOc1ccc2cc(C(N)=O)c(=Nc3ccccc3C)oc2c1	-6	-10
O=C1OC(Nc2ccccc2Br)c2ccccc21 (stereo unspecified)	17	9
c1ccc(-n2cccc2CN2CCc3[nH]cnc3C2c2ccsc2)nc1 (stereo unspecified)	17	5
CCc1cccc2sc(N(CCN(C)C)C(=O)CCS(=O)(=O)c3ccc(F)cc3)nc12	-4	-6
CCc1cc(=O)[nH]c(-n2nc(C)cc2NC(=O)c2ccco2)n1	11	1
COc1ccc(-c2nc(CN(C)Cc3cnccn3)c(C)o2)c(C)c1C	5	-4
Cc1csc2nc(CSc3n[nH]c(-c4cccs4)n3)cc(=O)n12	0	23
CC(=O)NC1CCCN(C(=O)CN2CCCc3cc(C)ccc32)C1 (stereo unspecified)	5	2
Cn1c(=O)c2c(nc(N3CCN(Cc4ccccc4)CC3)n2Cc2ccccc2)n(C)c1=O	-7	-10
Cc1ccccc1/C=C/c1nc(SC(C)C(=O)N2CCC(C)CC2)n[nH]1 (stereo unspecified)	8	3
CCOC(=O)N1CCN(C(=O)CCCCSc2nnc(Cc3ccccc3)n2-c2ccc(Cl)c(Cl)c2)CC1	-1	1
O=C(CNC(=O)C1CC1(c1ccccc1)c1ccccc1)NCc1ccc2c(c1)OCO2 (stereo unspecified)	-30	-37
CC(C1CC1)N(CC(F)(F)F)C(=O)CSc1nnc2sc3ccccc3n12 (stereo unspecified)	1	0
Cc1nnc(-c2ccccc2-c2ccc(-c3ccn[nH]3)cc2)o1	5	4
Cc1c(C(=O)N2CCN(C(=O)c3cccc(F)c3)CC2)cc(-c2ccccc2)n1-c1ccccc1Cl	-4	-10
O=C(NC1CC1)C1CCN(c2ccc(-c3ccccc3)nn2)CC1	-10	-14
COc1ccc(CNC(=O)c2cccnc2N2CCN(C(=O)Nc3ccc(CC#N)cc3)CC2)cc1	25	23
COCCOc1nc(-c2ccc(Cl)c(Cl)c2)n(-c2ccc(NC(=O)c3cccc([N+](=O)[O-])c3)cc2)n1	3	13
O=c1cc(-c2ccccc2)oc2cc(O)cc(O)c12	-2&-3	-5&-4
CCC(CC)NC(=O)CSc1nnc(N2CCOCC2)n1CC1CCCO1 (stereo unspecified)	6	5
COc1cccc(C(C)N(C)Cc2nc(Cc3cccc(F)c3)no2)c1 (stereo unspecified)	-1	-3
O=C1NC(CCc2ccccc2)(C2CCNCC2)C(=O)N1Cc1cnccn1 (stereo unspecified)	3	-2
COCCn1c(SC(C)C)nc2ccc(Br)cc2c1=O	2	3
COCCN(CC(=O)Nc1nc(CC(=O)NCc2ccc(F)cc2)cs1)C(=O)c1ccc(Cl)c(Cl)c1	4	11
CCn1cnc2cc(N3Cc4ccccc4C3=N)ccc21	-6&-12	-12&-16
CCn1ccnc1CN(C)Cc1noc(C)n1	2	2
COc1ccc(Cl)cc1Cn1cc(C(=O)NCc2ccc(OC)c(OC)c2)sc1=O	10	5
O=C1c2cnc(-c3ccc(Cl)cc3)nc2C[C@H](c2ccco2)N1CC1CC1	21	15
Cc1cc(C)nc(-n2[nH]c3nccc(-c4ccc(F)cc4)c3c2=O)n1	-5	2
Nc1ccc(O)c(-c2nc3cc(N)ccc3s2)c1	3	-1
Nc1ccccc1C(=O)NN=Cc1cn(-c2ccccc2)nc1-c1ccc(Cl)cc1	9	3
Cc1cc(Oc2ccc(F)cc2)nc(SCc2ccccc2Cl)n1	7	18
CN(Cc1c(C(=O)N2CCCCC2)nc2sccn12)CC1COCCO1 (stereo unspecified)	6	6
O=c1cc(-c2ccccc2)nc(SCCc2ccccc2)[nH]1	4	1
Cc1nc(C)c(CNC(=O)Nc2nc(C(C)C)cs2)s1	1	-1
COCC(=O)N1CCC(c2nc(-c3ccccc3F)no2)CC1	7	3
CC(C)N1C(=O)c2ccccc2[C@@H](C(=O)NCC2COC(C)(C)O2)[C@@H]1c1ccccc1 (stereo partly specified)	-14	-19
Cc1ccsc1CN(Cc1ccc(F)cc1)C(=O)CN(CC1CCCO1)C(=O)c1cccc(Br)c1 (stereo unspecified)	11	14
CCC(CC)C1c2c(n[nH]c2C)OC(=N)C1C#N (stereo unspecified)	11	4
COCCN1CCN(CC(=O)NC2CCCCNC2=O)CC1C (stereo unspecified)	7	3
COc1ccc(C(CC(=O)NCCN(C)C)c2cn(C)c3ccccc23)cc1OC (stereo unspecified)	2	14
Cc1ccc2nc(Cl)c(/C=N\NC(=O)CN3CCCCC3)cc2c1	-1	-2
CCOc1ccccc1NC(=Nc1nc(C)cc(C)n1)NC(C)=O	-1	-8
CCCCc1nc(N2CCCN(C(=O)c3ccc(Cl)c(Cl)c3)CC2)c2c(-c3ccccc3)noc2n1	15	-3
COc1cccc(OC)c1OCCCOc1ccc(F)cc1	2	0
O=C(CC1C(=O)NCCN1CC(c1ccccc1)c1ccccc1)NCCn1cccn1 (stereo unspecified)	1	-1
CC(=O)Nc1cnc(-c2ccccc2C(F)(F)F)cn1	4	2

Individual results from the list:
`CCC(CC)NC(=O)CSc1nnc(N2CCOCC2)n1CC1CCCO1` (stereo unspecified) | NPYLR7 agonist max-min = 5
`COc1ccc(-c2nc(CN(C)Cc3cnccn3)c(C)o2)c(C)c1C` | NPYLR7 agonist = 5

Next section
SMILES	NPYLR7 agonist	NPYLR7 agonist max-min
CC(CNC(=O)N(C)C(C)c1ccncc1)c1ccc(F)cc1F (stereo unspecified)	11	8
CC(C)Cn1cncc1CNc1cc(N2CCOCC2)nc(N)n1	-4	-6
Cn1c(=O)c(C(=O)Nc2nc3ccc(Br)cc3s2)c(O)c2ccccc21	11	10
COc1ccc(/C=C/C(=O)Oc2coc(CSc3nc(C)cc(C)n3)cc2=O)cc1OC	-11	-4
CC(C)c1cccc(NC(=O)CN2C(=O)NC3(C2=O)C(C)CCCC3C)c1 (stereo unspecified)	0	-3
Cc1cc(C)c2c(c1)C(=O)C(=O)N2	7	9
CC(C)(C)NCC(O)c1cc(O)cc(O)c1 (stereo unspecified)	14&0&9&-1	1&-6&-3&-22
COCCNC(=O)C(NC(=O)c1ccc(F)cc1)C1CCN(C(=O)Cc2ccccc2)CC1 (stereo unspecified)	-10	-9
Cc1ccc(C(=O)N2CCn3c(nnc3C(N)=O)C2)cc1F	10	4
Cc1cccc(S(=O)(=O)NCCn2ncccc2=O)c1	2	0
Cc1[nH]n(-c2ccccc2)c(=O)c1N=Nc1ccc(Br)cc1	-7	-5
COCCNc1nc(Nc2ccc(OC)cc2)c2cn[nH]c2n1	3	4
O=C(c1cn(C2CCCCC2)nn1)N1CCN(Cc2ccc3c(c2)OCO3)CC1	5	4
COc1ccc(NC(=O)CSc2nnc(CNC(=O)c3ccco3)n2-c2cccc(C)c2)cc1	-4	-9
COCOc1cccc(CN2CCC2(C)C(=O)Nc2ccc3c(c2)CCN3C(C)=O)c1 (stereo unspecified)	8	0
O=C(CNc1ccccc1C(=O)NC1CC1)Nc1cccc(S(=O)(=O)N2CCCCC2)c1	12	16
COc1ccc(-c2cc(C(=O)NCc3ccco3)n3nc(C(C)(C)C)cc3n2)cc1	-3	4
COCCN(CC(=O)Nc1nc(CC(=O)N2CCC(n3c(=O)[nH]c4ccccc43)CC2)cs1)C(=O)c1ccc(OC)cc1	1	9
Fc1ccc(C2CCCN2Cc2cnc(N3CCOCC3)s2)cc1 (stereo unspecified)	-3	-2
Cc1ccsc1[C@@H]1CCN(C(=O)CCC(=O)N2CCCCCC2)C[C@H]1O	17	3
Cc1nc(CN(C)Cc2ccc(C#CC(C)(C)O)s2)no1	1	-3
O=C(Nc1ccc2c(c1)OCCCO2)N1CCN(CCCOC(c2ccc(Cl)cc2)c2ccc(Cl)cc2)CC1	-2	0
C=CCNC(=O)c1ccc(-c2ccc(F)c(CO)c2)o1	-3	-3
COc1cc(O)c(C(=O)/C=C/c2ccc(O)c(OC)c2)c(OC)c1	4	5
N#CC1C(=N)Oc2[nH]c(=O)[nH]c(=O)c2C1c1cccs1 (stereo unspecified)	-4	-5
CC(C)c1ccc(CN2CCC2(C)C(=O)N2CCN(C(=O)c3ccco3)CC2)cc1 (stereo unspecified)	7	5
CCn1c(/C=C/N(C(C)=O)c2ccccc2)[n+](CC)c2ccc(OC)cc21	6	3
C1=C[C@H]2C[C@@H]1C[C@H]2CCn1ccnc1C1CC1	-3	-8
Cc1cc(OCCO)ccc1NS(=O)(=O)c1cccc(S(C)(=O)=O)c1	-8	-10
COCCN1CCCC(O)(CN(C)Cc2ccc3c(c2)OCO3)C1=O (stereo unspecified)	0	4

Record cards, as listed above. Values in the order: NPYLR7 agonist	NPYLR7 agonist max-min
C=CCNC(=O)c1ccc(-c2ccc(F)c(CO)c2)o1 in the list: -3	-3
C1=C[C@H]2C[C@@H]1C[C@H]2CCn1ccnc1C1CC1 in the list: -3	-8
CC(C)c1ccc(CN2CCC2(C)C(=O)N2CCN(C(=O)c3ccco3)CC2)cc1 (stereo unspecified) in the list: 7	5
Cc1cc(OCCO)ccc1NS(=O)(=O)c1cccc(S(C)(=O)=O)c1 in the list: -8	-10

Continuation.
SMILES	NPYLR7 agonist	NPYLR7 agonist max-min
Cn1cc(CN2CCN(c3cnccn3)CC2)c(-c2ccc(C3CCCCC3)cc2)n1	2	-4
O=C(Nc1cccc(-c2ccc3nncn3n2)c1)C1CCCCC1	-19	-16
CCN(CC)C(=O)Oc1ccc2c(ccn2Cc2ccc(Cl)cc2)c1NC(=O)c1ccco1	-2	-6
Clc1cccc(COc2ccc3c(C4CC4)noc3n2)c1	1	3
COc1cc(C(=O)N(Cc2cccnc2)c2nc3ccc(Cl)cc3s2)cc(OC)c1OC	-8	0
COc1cccc(-c2nn(CCc3ccccc3)c(=O)c3nc(C)sc23)c1	15	11
CC(=O)c1ccc(N=Cc2nc(-c3cccc4ccccc34)oc2O)cc1	-3	-9
COc1ccc(NC(=O)N(Cc2nc(C(=O)O)cs2)C(C)C)cc1	-1	-8
Cc1ccccc1CSc1nnc(C(C)NC(=O)c2ccc([N+](=O)[O-])cc2Cl)n1-c1cc(Cl)ccc1C (stereo unspecified)	20	16
N#CCCn1cc(C2=NNC(=Nc3ccc(Cl)cc3Cl)SC2)c2ccccc21	5	3
COc1ccc(C2CC(c3ccccc3)=Nc3ncnn32)cc1OC (stereo unspecified)	17	24
CCc1ocnc1C(=O)NC1CC(=O)N(CCc2cccc(Cl)c2)C1 (stereo unspecified)	9	3
O=C1NCCN(Cc2cnc(-c3ccccn3)nc2)C1c1ccc(F)cc1 (stereo unspecified)	-2	-3
Cc1nnc(CS(=O)(=O)Cc2ccc3c(c2)CCC3)o1	5	3
O=C(Cn1ccn2nc(-c3ccccc3)cc2c1=O)Nc1ccc(Oc2ccccc2)cc1	24	13
CC(C)(C)OC(=O)N1CCCc2ccc(NC(=O)c3cn[nH]n3)cc21	-4	-6
CC(C)C(C(=O)O)N1C(=O)/C(=C/c2cccs2)SC1=S (stereo unspecified)	-1	-7

Molecules listed so far with a CF3 group, in the order listed:
SMILES	NPYLR7 agonist	NPYLR7 agonist max-min
O=C(Nc1ccc(F)cc1)c1ccc(CSc2nc(N3CCN(Cc4ccccc4)CC3)cc(C(F)(F)F)n2)o1	4	7
CC(C1CC1)N(CC(F)(F)F)C(=O)CSc1nnc2sc3ccccc3n12 (stereo unspecified)	1	0
CC(=O)Nc1cnc(-c2ccccc2C(F)(F)F)cn1	4	2

A portion of the library; the hit share may differ from the screen's.
